# Ecoli rRNA inh: selective bacterial rRNA inhibition in E. coli; hit rate 1.6% among 350,000; AID 720706; GFP signal change (wild-type ribosome), % (test concentration not listed); E. coli WT GFP vs humanized-ribosome RFP mutants, fluorescence, 24 h; hits give low values; DMSO median 0, no signal -100;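 active = significant combined selectivity score with lowered wild-type GFP, culture density cut under 30%, mutant RFP and density less affected; inactive = any of these conditions unmet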; note: one replicate is shown; some compounds called inactive have numbers as strong as hits
# Bfl-1 A1 inh: inhibitors of the anti-apoptotic protein A1, read as caspase activation | MEF A1-2A-BIM cells, Caspase-Glo 3/7 luminescence, 3 h; percent of clofoctol response, vehicle zero | caspase activation, % (test concentration not listed) | hit rate 0.066% among 330,000;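 active = over half of replicate activation scores above 10%, or exactly half above 10 with the replicate mean above 10; inconclusive = replicate mean below 10 yet half the replicates above 10; inactive = over half of replicates below 10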;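 note: wells of about 30 µL received 50 nL stock; many hits fall short of the cut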
# LANA-H2B inh: blocks KSHV LANA binding to histone H2A/H2B | hit rate 0.6% among 320,000 | cell-free LANA-H2A/H2B peptide, fluorescence polarization | inhibition, % (concentration not given with the values); in the data active = inhibition mostly above about 10%, no sharp cut-off; inactive = mostly below about 6.7%;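 note: stock transfer was 7.5 nL into about 10 µL; 0% = median of vehicle wells and 100% = median of positive control wells; one replicate is shown; the record names a cut of 25% in any replicate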
# T cruzi repl: blocks replication of Trypanosoma cruzi; T. cruzi beta-gal in NIH3T3, luminescence, 90 h; inhibition, % (concentration not given with the values); hit rate 1.4% among 300,000; AID 1885;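 active = mean inhibition across valid replicates above about 55%, limit read from the data; inconclusive = mean below that limit but half or more replicates reach it; inactive = mean below it, under half of replicates reach it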;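 note: signal also drops with host cell toxicity which is not excluded here; 0% = plate median of DMSO wells and 100% = zero luminescence signal; higher percent means less beta-gal luminescence so fewer parasites; stock transfer was 50 nL into about 50 µL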
# Beta2AR agonist: activates human beta-2 adrenergic receptor causing internalization; P07550; Am2.2-beta2AR cells, FAP receptor internalization, flow cytometry; reference of the scale not given here; response, % (no concentration beside the values); hit rate 0.43% among 340,000; AID 504454;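 active = response above a set limit, near 3 SD of response in nonfluorescent compounds, cut at about 42% in these data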;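 note: stock transfer was 100 nL into about 11 µL; a reference agonist was the positive control; negative values mostly stem from fluorescent compounds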
# Target sequence (P07550 whole entry, looked up): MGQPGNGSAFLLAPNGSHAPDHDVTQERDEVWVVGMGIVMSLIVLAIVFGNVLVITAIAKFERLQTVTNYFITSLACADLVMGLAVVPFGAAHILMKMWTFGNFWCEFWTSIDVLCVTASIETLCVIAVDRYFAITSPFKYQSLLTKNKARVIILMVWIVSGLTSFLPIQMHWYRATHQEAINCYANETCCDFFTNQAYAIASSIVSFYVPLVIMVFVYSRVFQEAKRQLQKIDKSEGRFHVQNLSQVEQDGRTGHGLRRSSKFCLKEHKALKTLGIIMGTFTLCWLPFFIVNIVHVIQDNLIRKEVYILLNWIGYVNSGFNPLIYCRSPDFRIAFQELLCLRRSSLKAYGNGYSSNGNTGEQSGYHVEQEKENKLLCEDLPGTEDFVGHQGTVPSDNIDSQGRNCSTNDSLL
# ALR inh: blocks human ALR sulfhydryl oxidase activity; purified ALR, DTT oxidation, H2O2 HRP-luminol luminescence; inhibition, % (concentration not given with the values); hit rate 3.8% among 290,000; AID 485317;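 active = mean and each replicate at 75% or more; inconclusive = only one of the two met; inactive = neither met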;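 note: stock transfer was 7.5 nL into about 7.5 µL; 0% = neutral wells and 100% = wells with inactivated enzyme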
# Target sequence (P55789 whole entry, looked up): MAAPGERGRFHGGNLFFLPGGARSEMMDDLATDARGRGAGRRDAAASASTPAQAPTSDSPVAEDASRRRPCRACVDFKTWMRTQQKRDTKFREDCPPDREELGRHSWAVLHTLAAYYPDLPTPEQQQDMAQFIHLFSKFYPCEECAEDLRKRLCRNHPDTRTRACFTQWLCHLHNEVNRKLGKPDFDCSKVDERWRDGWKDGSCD
# Beta cell apopt: blocks beta cell apoptosis; INS-1E cytokine-induced death, ATP luminescence, 48 h; percent of positive-control rescue, neutral wells zero; protection from apoptosis, % (no concentration beside the values); hit rate 0.8% among 300,000;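 active = all replicates at 75% or more, or half of them and the mean; inconclusive = half reach 75% but not the mean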;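 note: 0% = cytokine-treated negative control wells and 100% = positive control rescue; higher means more ATP so stronger rescue from cytokine killing; wells of about 40 µL received 100 nL stock; the first replicate is given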
# Calb FLC: affects C. albicans growth with fluconazole | hit rate 0.57% among 300,000 | C. albicans CaCi-2 (fluconazole-resistant clinical isolate) + fluconazole, Alamar Blue growth, 48 h | growth inhibition, % (no concentration beside the values);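 active = most replicates above 75%; inconclusive = exactly half above 75%; inactive = most below 75%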;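 note: all wells also contain fluconazole at 8 µg/ml as a sub-toxic cotreatment; 0% = median of DMSO wells and 100% = median of geldanamycin control wells; wells of about 8 µL received 7.5 nL stock; the first replicate is given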
# Ecoli rRNA inh OD600: recorded beside Ecoli rRNA inh, whose call it bears; OD600 change, %; measured here: OD600 growth;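 optical density of the mix in the first replicate; 0 = DMSO median and -100 = no signal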
# Ecoli rRNA inh RFP: second read-out of Ecoli rRNA inh, no call of its own (marks repeat the call); RFP signal change, %; measured here: RFP humanized mutant strains;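 first replicate; 0 = DMSO median and -100 = no signal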
# Active calls of the source: *; ? = inconclusive; nt = no result given; & = joins results of further samples. A portion of the library. The share of hits here may be higher or lower than overall.
SMILES,Ecoli rRNA inh,Ecoli rRNA inh OD600,Ecoli rRNA inh RFP,Bfl-1 A1 inh,LANA-H2B inh,T cruzi repl,Beta2AR agonist,ALR inh,Beta cell apopt,Calb FLC
COC(=O)C1=CN(C)C=C(C(=O)OC)C1c1ccc(Cl)cc1Cl,nt,nt,nt,-0.4,0.3,-1.5,5.0,-5.8,-5.7,6.0
COc1ccc(N2C(=O)CSC2c2cccc(OC)c2OC)cc1 (stereo not drawn),nt,nt,nt,1.0,nt,-8.3,1.3,-2.1,-1.0,13.8
CCCN[C@@H]1C(=O)N2C(C(=O)OCCC)=C(C)CS[C@H]12,13.1,17.6,1.2,2.5,-5.0,1.4,2.3,3.9,-1.0,-5.6
CN(CC(=O)NC1CCCC1)S(=O)(=O)c1cccc(Cl)c1,3.8,12.9,-3.2,-0.3,4.7,nt,-3.5,-5.7,-4.6,nt
COC(=O)C(NC(C)=O)(Nc1cc(C)ccn1)C(F)(F)F (stereo not drawn),11.4,10.2,0.4,0.3,1.6,-13.7,-3.7,nt,-13.5,6.4
CC(C)C(=O)NCCc1nc2ccccc2n1CCCOc1ccc(Cl)cc1,nt,nt,nt,0.6,9.1,7.9,0.7,-9.0,4.1,-2.9
Cc1cccn2cc(CCNS(=O)(=O)c3ccc4c(c3)OCCO4)nc12,2.5,0.9,6.7,0.1,11.7,-7.2,8.5,0.1,-0.2,23.4
COc1cccc(Nc2nnc(SCc3nc4ccccc4s3)s2)c1,-17.1,-10.0,22.2,-0.8,-3.3,11.5,4.3,-6.8,2.1,-5.1
COc1ccc(CCNC(=O)CC(Cc2ccccc2)C(=O)O)cc1OC (stereo not drawn),17.0,11.4,-1.0,1.4,0.4,-10.4,0.8,-10.9,-1.8,-5.1
Cc1ccc(COC(=O)c2cccc(S(=O)(=O)N3CCCCCC3)c2)cc1,-2.2,-3.9,-0.9,-0.8,1.7,nt,3.1,nt,-2.5,nt
CCOC(=O)c1[nH]c(C)c(C(=O)OCC(=O)N2CCCCC2C)c1C (stereo not drawn),nt,nt,nt,0.5,3.7,4.6,-6.4,nt,-3.7,-8.9
CCSc1nnc(-c2sc3nnc(-c4ccccc4)c(-c4ccccc4)c3c2N)o1,nt,nt,nt,0.1,2.2,42.8,12.6,nt,18.9,4.7
CC(C)(C)n1nc2c(c1NC(=O)C1CC(=O)N(c3ccc(Cl)cc3)C1)CS(=O)(=O)C2 (stereo not drawn),-1.6,6.0,0.3,-0.7,0.9,0.5,12.6,-11.4,-0.4,1.5
CC(=O)Oc1ccc(C2(C)CC(C)(C)NC(=S)N2C)c(OC(C)=O)c1 (stereo not drawn),-4.5,-12.8,2.5,0.2,2.7,-5.0,0.7,-6.9,-0.8,4.9
CCN(CC)S(=O)(=O)c1ccc(-n2cnc3cc(C)c(C)cc32)nc1,1.9,12.2,-1.4,0.2,-4.6,4.3,0.4,-13.3,6.8,15.0
CCCC(=O)Nc1ccccc1-c1nnn(CC(=O)Nc2ccc(OC)cc2)n1,nt,nt,nt,0.8,1.7,3.5,-17.2,1.8,-0.1,-0.5
CCCC(=O)N1CCN(c2ccc(NC(=O)C(C)(C)C)cc2Cl)CC1,-1.7,-6.9,0.1,0.8,5.1,-1.1,1.1,3.9,1.5,?
C(=N\NC1=NCCN1)/c1ccncc1,-4.3,7.8,-2.8,0.2,-1.8,17.5,1.5,-32.8,7.3,-4.6
O=C1C(=O)N(CCCO)C(c2ccccc2)/C1=C(\O)c1ccc(Br)cc1 (stereo not drawn),3.1,4.4,-1.1,0.5,0.1,-7.1,-8.1,-2.0,-1.6,-7.4
CCOc1ccc2c(c1)C(c1cccs1)=NNC(c1cccnc1)=N2,5.3,10.4,-0.5,0.3,-10.5,-7.6,-20.9,nt,-3.8,34.9
O=C(Nc1c[nH]c2c(Cl)cccc2c1=O)N1CCN(c2ccccn2)CC1,-3.7,-0.3,0.3,0.1,0.9,12.3,0.6,-1.4,-3.8,-4.1
O=C(CNC(=O)c1[nH]cnc1C(=O)N[C@@H](Cc1ccccc1)C(=O)OCc1ccccc1)OCc1ccccc1,10.3,5.3,-4.7,1.5,2.2,8.5,7.7,-6.9,-3.6,-2.1
Cc1c(C(=O)O)c(-c2ccccc2)nn1-c1ccccc1,nt,nt,nt,-0.1,3.4,-6.9,-10.0,nt,-5.1,9.9
COc1cc(CN2CCCC(CO)(Cc3cccc(Cl)c3)C2)cc(OC)c1O (stereo not drawn),12.8,1.7,4.6,-0.1,5.7,15.0,-1.3,-6.8,nt,-4.6

# Record cards (already shown). Screens in order: Ecoli rRNA inh	Ecoli rRNA inh OD600	Ecoli rRNA inh RFP	Bfl-1 A1 inh	LANA-H2B inh	T cruzi repl	Beta2AR agonist	ALR inh	Beta cell apopt	Calb FLC
# C(=N\NC1=NCCN1)/c1ccncc1 as listed: -4.3	7.8	-2.8	0.2	-1.8	17.5	1.5	-32.8	7.3	-4.6
# O=C1C(=O)N(CCCO)C(c2ccccc2)/C1=C(\O)c1ccc(Br)cc1 (stereo not drawn) as listed: 3.1	4.4	-1.1	0.5	0.1	-7.1	-8.1	-2.0	-1.6	-7.4
# CCOc1ccc2c(c1)C(c1cccs1)=NNC(c1cccnc1)=N2 as listed: 5.3	10.4	-0.5	0.3	-10.5	-7.6	-20.9	nt	-3.8	34.9
# CC(=O)Oc1ccc(C2(C)CC(C)(C)NC(=S)N2C)c(OC(C)=O)c1 (stereo not drawn) as listed: -4.5	-12.8	2.5	0.2	2.7	-5.0	0.7	-6.9	-0.8	4.9

# (next part)
SMILES,Ecoli rRNA inh,Ecoli rRNA inh OD600,Ecoli rRNA inh RFP,Bfl-1 A1 inh,LANA-H2B inh,T cruzi repl,Beta2AR agonist,ALR inh,Beta cell apopt,Calb FLC
O=C(OCC(=O)N1CCc2ccccc21)c1ccccc1F,-0.7,0.3,-1.7,-1.0,1.5,-1.3,-1.0,nt,-2.4,-1.7
COc1cc(/C=C2/SC(=S)N(c3c(C)n(C)n(-c4ccccc4)c3=O)C2=O)ccc1O,-8.3,-14.4,20.3,0.4,-6.7,10.2,2.8,89.7*,-0.7,34.2
CN1CCN(C(=O)c2cc3nc(-c4ccc(Cl)cc4)cc(C(F)(F)F)n3n2)CC1,nt,nt,nt,0.2,-4.4,18.4,-24.6,0.3,-1.4,4.2
O=[N+]([O-])c1cnc(Nc2ccccc2)nc1Nc1ccccc1,-2.9,13.8,-0.6,0.2,-6.0,-16.8,8.0,-1.1,-3.8,7.6
O=C(N/N=C\c1ccc([N+](=O)[O-])s1)C1COc2ccccc2O1 (stereo not drawn),-7.2,8.2,3.3,0.0,-4.8,16.4,19.6,-21.3,-5.3,-1.7
CC(C)OC(=O)CC1C(=O)NCCN1C(=S)NC(=O)c1ccccc1Cl (stereo not drawn),16.0,15.5,3.7,0.1,8.2,13.8,3.4,-3.3,-6.3,-14.3
O=C(Nc1ccc(N2CCN(C(=O)c3ccc(Cl)cc3)CC2)cc1)c1ccc(Br)o1,nt,nt,nt,1.1,0.2,69.9*,19.1,0.5,3.7,-2.4
CCn1c(SC)nnc1-c1nn(-c2ccccc2)ccc1=O,14.2,13.5,0.6,-0.7,2.3,-9.2,4.7,-0.1,-12.6,?
Cc1ccc(-n2ncc3c2CC(C)(C)CC3NC(=O)Cc2c(C)noc2C)cc1 (stereo not drawn),-1.2,2.2,0.9,1.1,5.3,-6.7,1.5,-5.1,-4.8,0.7
Cc1cc(NC(=O)CSc2nnc(-c3ccncc3)n2N)ccc1Br,nt,nt,nt,1.6,1.3,-2.4,3.6,2.2,nt,9.5
Cn1cc(C=O)c(-c2ccc3c(c2)OCCCO3)n1,10.3,17.4,6.5,-1.1,4.7,-5.3,7.7,-5.9,0.0,-3.8
CCN(CC)C(=O)[C@H]1CC(CC(=O)NCc2ccc(OC)c(OC)c2)C(=O)N2CCc3c([nH]c4ccccc34)[C@]12C (stereo partly drawn),10.3,-8.1,0.6,-0.6,nt,nt,-14.0,2.7,1.9,nt
COc1cccc(NC(=O)CSc2nncn2N)c1,nt,nt,nt,0.4,-0.3,-4.9,-6.5,-13.8,-6.0,0.6
CC(NC(=O)c1ccc(S(=O)(=O)N(C)C)cc1)c1ccc(-n2ccnc2)cc1 (stereo not drawn),1.7,-13.3,1.1,0.4,-6.3,7.2,0.8,nt,4.9,-6.9
COc1ccc([N+](=O)[O-])cc1NC(=O)CCN1CCN(c2ccccc2OC)CC1,12.1,-0.7,-2.2,-1.9,1.2,0.2,-10.2,nt,-3.9,-2.3
CC1(C(=O)NCc2ccc(F)cc2)Oc2ccccc2NC1=O (stereo not drawn),8.2,3.2,1.6,0.7,nt,-1.5,6.1,nt,-3.7,-0.9
S=C(S)N1CCCC1,nt,nt,nt,0.9,-4.4,nt,10.2,-12.2,-3.3,nt
CC1CCN(C(=O)c2ccc(S(=O)(=O)Cc3cccc(F)c3)c([N+](=O)[O-])c2)CC1,nt,nt,nt,0.3,2.0,-5.2,-5.8,-0.6,nt,27.9
O=C(NCCOc1ccccc1F)C1CC(=O)N(c2ccc3c(c2)OCCO3)C1 (stereo not drawn),-1.1,-0.2,0.0,0.1,-5.8,nt,-1.5,-0.9,-4.4,nt
Cc1cc(NC(=O)CSc2nnc(Cc3ccccc3)n2C)no1,nt,nt,nt,0.0,0.7,-9.0,-4.7,-17.8,-5.9,-2.0
COc1cc(NC(=S)NCCCN2CCOCC2)c(OC)cc1NC(=O)c1ccco1,nt,nt,nt,0.3,3.3,-2.4,-4.3,-9.3,-8.2,2.7
O=C(NC(NC(=S)Nc1cccc(C(=O)O)c1)C(Cl)(Cl)Cl)OCc1ccccc1 (stereo not drawn),15.5,3.8,9.1,0.0,-1.8,-16.7,0.2,5.1,-8.1,2.4
O=C(COC(=O)c1ccco1)Nc1ccc2c(c1)OCCO2,nt,nt,nt,0.4,3.3,-27.4,2.6,-4.3,2.3,33.2
CC(C)Oc1ccc(/C=C(\NC(=O)/C=C/c2ccco2)C(=O)NCCc2nc3ccccc3[nH]2)cc1,nt,nt,nt,0.0,-1.1,-0.6,-1.7,nt,4.1,3.9
N=c1c[n+](N2CCOCC2)[n-]o1,17.1,15.2,1.0,0.0&1.2,-0.8&2.0,-16.0&-9.9,-1.4,5.3&-3.4,-6.1,-0.3
Nc1nc(SCC(=O)Nc2ccc([N+](=O)[O-])cc2)[nH]c(=O)c1NC(=O)c1ccc(Br)cc1,6.2,4.7,-2.8,0.2,2.4,0.5,4.0,-22.3,-1.7,4.1
CCOCCCNC(=O)C(c1ccccc1)N(Cc1ccc2c(c1)OCO2)C(=O)c1ccccc1O (stereo not drawn),-18.9,-24.4,-0.6,0.3,-3.5,-1.3,5.0,1.1,-4.1,1.0
CC(OC(=O)CCN=C1NS(=O)(=O)c2ccccc21)C(=O)Nc1ccccc1F (stereo not drawn),6.0,11.9,-1.7,-0.1,3.4,-10.8,0.4,-7.9,nt,-4.0

# Compound activity (PubChem)
